Assay outcomes: PubChem BioAssay, National Center for Advancing Translational Sciences (NCATS)
GLA inh pH 4.5: blocks human alpha-galactosidase A at pH 4.5; P06280; activity change, negative = inhibition, % at 105 µM; 230,000 tested, under 10 active; AID 1467; purified enzyme, 4-MU-alpha-Gal fluorescence, pH 4.5; inconclusive = small, poorly fitted or top-dose-only inhibition, or a rising curve; inactive = flat fitted curve, though single readings scatter; no compound was filed as active;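 further: 0% = full activity with enzyme and -100% = basal without enzyme; dose as in the result columns while the protocol names 77 µM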
Target sequence (P06280 whole entry, looked up): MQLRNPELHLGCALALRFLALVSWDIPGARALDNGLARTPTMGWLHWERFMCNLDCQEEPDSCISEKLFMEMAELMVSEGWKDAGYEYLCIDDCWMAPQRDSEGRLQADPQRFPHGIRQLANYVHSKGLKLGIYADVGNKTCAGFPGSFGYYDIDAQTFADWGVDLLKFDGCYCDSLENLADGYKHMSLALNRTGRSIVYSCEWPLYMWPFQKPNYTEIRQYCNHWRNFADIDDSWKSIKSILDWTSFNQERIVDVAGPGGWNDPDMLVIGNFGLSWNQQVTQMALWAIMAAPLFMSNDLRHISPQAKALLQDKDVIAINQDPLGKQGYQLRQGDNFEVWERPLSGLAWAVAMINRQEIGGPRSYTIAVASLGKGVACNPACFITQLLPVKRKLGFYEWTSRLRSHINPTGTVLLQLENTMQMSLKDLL
* = called active by the depositor; & = joins results of further samples. This is a subset, so the mix of outcomes need not match the whole.

A first look, five compounds:
Compound | GLA inh pH 4.5
N#CC(Cc1ccc(O)c(O)c1)C(=O)N1CCc2ccccc21 (stereo unspecified) | -3
CNc1nc(-c2ccccc2Cl)nc2ccccc12 | -4
C[N+]1(CCCCC[N+]2(C)CCCC2)CCCC1 | 2&-2&-6
CN=C(N)NCCCC(N)C(=O)O (stereo unspecified) | -9
COC(=O)c1ccc(C(NC(=O)OCc2ccccc2)/C(F)=C/[C@@H](C)C(=O)NCc2cccnc2)cc1 (stereo partly specified) | -5

The listing, from the first entry:
Compound | GLA inh pH 4.5
N#CC(Cc1ccc(O)c(O)c1)C(=O)N1CCc2ccccc21 (stereo unspecified) | -3
CNc1nc(-c2ccccc2Cl)nc2ccccc12 | -4
C[N+]1(CCCCC[N+]2(C)CCCC2)CCCC1 | 2&-2&-6
CN=C(N)NCCCC(N)C(=O)O (stereo unspecified) | -9
COC(=O)c1ccc(C(NC(=O)OCc2ccccc2)/C(F)=C/[C@@H](C)C(=O)NCc2cccnc2)cc1 (stereo partly specified) | -5
Cc1ccc2c(=O)c3ccccc3n(CCCN)c2c1C | -4
COCCn1c(C(=O)N2CCCC2)cc2c1C[C@H]1CN(C(=O)c3ccccc3)[C@@](Cc3ccccc3)(C(=O)OC)[C@@H]21 | -4
COc1ccc2c(c1)C(=O)[C@H](OC(=O)N[C@H](C)C1CCCCC1)[C@@H](c1ccc(OC)c(Br)c1)O2 | -7
CC(C)=CCCC(C)C1CC[C@@]2(C)C3=C(CC[C@@]12C)C1(C)CCC(O)C(C)(C)C1CC3 (stereo partly specified) | -2
CCCCCCCCCCCCCCCC(=O)N[C@@H](COP(=O)(O)O)C(=O)O | -5
CC12C=C(/C=C/c3ccc(Br)cc3)C(C)(C1)[C@H](c1ccc(Br)cc1)CC2=O (stereo partly specified) | -3
COc1cccc([C@@H]2Oc3ccc(OC)cc3C[C@H]2O)c1 | -6
Cc1cccc(CNc2cc(-c3cccnc3)ncn2)c1 | -1
C=C(C(C)=O)C(O)c1ccc(C(F)(F)F)cc1 (stereo unspecified) | -3
CCCn1c(-c2ccc(F)cc2)nc2c(NCCN3CCCC3)nc(C)nc21 | -2
CC(C)(C)C(=O)OCOP(=O)(OCOC(=O)C(C)(C)C)C(C)(Oc1ccc(O)cc1)P(=O)(OCOC(=O)C(C)(C)C)OCOC(=O)C(C)(C)C | -1
CCCCC#Cc1nc(NC)c2ncn([C@@H]3O[C@@H](CO)[C@H](O)[C@H]3O)c2n1 | -13
Nc1ccc(C(=O)Oc2ccccc2)c(O)c1 | -5
COc1ccc(C2CC(=O)c3ccc(OC)cc3O2)cc1 (stereo unspecified) | 1
O=C(CCN1CCCCC1)Nc1ccc2c(c1)C(=O)c1ccc(NC(=O)CCN3CCCCC3)cc1C2=O | -5
Nc1ncnc2c1[nH]c(=O)n2C1CC(O)C(CO)O1 (stereo unspecified) | -21
O=C(O)c1ccccc1-c1oc2cc(O)ccc2c(=O)c1Oc1ccccc1 | -9
C[C@@]1(C(NC(=O)Cc2ccccc2)c2ccc(-c3ccccc3)cc2)C[C@H]1C1CCCCC1 (stereo partly specified) | 0
CC(C)C[C@@H](CC(=O)N[C@@H](CCC(=O)O)CC(=O)O)NC(=O)[C@@H]1CCCC[C@H]1NC(=O)C[C@@H](NC(=O)C[C@H](Cc1c[nH]c2ccccc12)NC(=O)[C@@H]1CCCC[C@H]1N)C(C)C | -9
Cc1nc(NCCO)c2nc(-c3ccccc3)n(CCN(C)C)c2n1 | -5
CO/N=C(\C(=O)N[C@@H]1C(=O)N2C(C(=O)[O-])=C(C[N+]3(C)CCCC3)CS[C@@H]12)c1csc(N)n1 | 8
CC(=O)OCC1=C(C(=O)O)N2C(=O)C(NC(=O)Cc3cccs3)C2SC1 (stereo unspecified) | 2
C[C@]12C=CC(=O)C=C1CCC1C2=CC[C@]2(C)[C@@H](C(=O)CN3CCN(c4cc(N5CCCC5)nc(N5CCCC5)n4)CC3)CC[C@@H]12 (stereo partly specified) | -4
COC(=O)N1C(/C=C/C=C/c2ccc(OC)cc2)=Cc2ccccc2C1CC(C)=O (stereo unspecified) | -1
C=C(C[C@]1(C(=O)OC)CC2(CC=C(C)C)C(=O)C(C(=O)CC(C)C)=C(O)C(CC=C(C)C)(C1)C2=O)C(=O)OC (stereo partly specified) | -1
CC(=O)N1CCN(c2ccc(OCC3CO[C@@](Cn4ccnc4)(c4ccc(Cl)cc4Cl)O3)cc2)CC1 (stereo partly specified) | -6
O=C(O)CCC(=O)O | -7
CCC1OC(=O)C(C)[C@@H](O[C@H]2C[C@@](C)(OC)C(O)C(C)O2)C(C)[C@@H](O[C@@H]2OC(C)CC(N(C)C)C2O)[C@](C)(O)CC(C)/C(=N\OCOCCOC)[C@H](C)C(O)[C@]1(C)O (stereo partly specified) | 0
Cc1noc(C)c1-c1cncnc1NC1CC1 | 4
CC(C)NC[C@H](O)c1ccc(NS(C)(=O)=O)cc1 | 0&9
COc1ccc(-c2cc3ccccc3c(=O)o2)cc1 | -6
CO[C@H]1C([C@@]2(C)O[C@@H]2CC=C(C)C)[C@]2(CC[C@H]1OC(=O)/C=C/C=C/C=C/C=C/C(=O)O)CO2 (stereo partly specified) | -3
COc1cccc(-c2coc3ccc(Br)cc3c2=O)c1 | -3
CCC1=C2CC[C@H]3C(=O)N(CC(=O)OC)C(=O)[C@H]3[C@H]2[C@@]2(Cc3ccccc3)C(=NCCOC)OC(=O)N2C1=O | -13
C[C@@H]1C(=O)CC2C(C)(C)CCC[C@]2(C)[C@@]1(O)CCc1ccoc1 (stereo partly specified) | -18
CC1=CCc2c(cc3oc(C)cc(=O)c3c2O)OC1 | 5
O=C(O)/C=C1\CCCc2ccccc2[C@H]1O | 0
CCOC(=O)c1c(N)sc(C)c1-c1ccccc1 | -6
CCCCc1nc2c(c3c1C[C@H](C)OC3)CN(S(=O)(=O)c1ccc(C#N)cc1)CC2 | 3
C[C@H]1Cc2c(-c3ccccc3)nc3c(c2CO1)CN(C(=O)c1ccco1)CC3 | -1
CCCCC[C@H](O)/C=C/[C@H]1OC(O)C[C@H](O)[C@@H]1C/C=C\CC(=O)O (stereo partly specified) | -5
CCOC(=O)CNC(=O)O[C@@H]1C(=O)c2ccc(OC)cc2O[C@H]1c1ccc2c(c1)OCO2 | -4
CC(C)C[C@@H](CC(=O)N[C@@H](CCCN)CC(=O)N[C@@H]1CCNC[C@H]1C(=O)N[C@H](CC(=O)N[C@@H](CCC(=O)O)CC(=O)O)CC(C)C)NC(=O)[C@@H]1CCCC[C@H]1N | -4
COc1ccc2c(c1)OCC(Cc1ccc(OC)c(OC)c1)C2=O (stereo unspecified) | -9
COC(=O)[C@@]1(Cc2ccc(F)cc2)[C@H]2c3cc(C(=O)N4CCCC4)n(CCc4c[nH]c5cc(F)ccc45)c3C[C@H]2CN1C(=O)c1ccccc1 | -17
COc1ccc2[nH]cc(CCNc3ncncc3-c3ccccc3CN(C)C)c2c1 | -1
CN[C@]1(C)[C@H]2CC[C@@H](C2)C1(C)C | 5
N[C@]1(C(=O)O)CCc2cc(P(=O)(O)O)ccc21 | 0
COc1cccc2oc(-c3ccc(O)cc3)cc(=O)c12 | -7
O=C(O)COc1ccc(OCCNC[C@@H](O)COc2ccccc2)cc1 | -7
COC(=O)C[C@H]1c2ccccc2C2=C(C[C@@H](C)[C@H]3C(=O)N(c4ccccc4)C(=O)[C@@H]23)N1C(=O)OC | 12&-11
NC(=O)c1ccc[n+]([C@@H]2OC(COP(=O)([O-])OP(=O)(O)OCC3OC(n4cnc5c(N)ncnc54)C(O)C3O)C(O)C2O)c1 (stereo partly specified) | 16
c1ccc(N2CCN(CCCOc3ccc4c(c3)OCO4)CC2)cc1 | -15
CC1(C)OC2CC3C4CC(F)C5=CC(=O)C=CC5(C)C4C(O)CC3(C)[C@]2(C(=O)CO)O1 (stereo partly specified) | 3
CCCCc1nc2c(c3c1C[C@H](C)OC3)CN(C(=O)NCc1ccco1)CC2 | 4

Going on with the list:
Compound | GLA inh pH 4.5
COC(=O)NC(c1ccccc1)C1(C(=O)OC)C(=O)Cc2ccccc21 (stereo unspecified) | -1
CC(=O)OCC1OC(n2cnc3c(Cl)nc(Cl)nc32)C(OC(C)=O)C1OC(C)=O (stereo unspecified) | 0
C#CCCCC(=S)Nc1ccccc1 | -4
COc1ccc2c3c1OC1C[C@@H](O)C=C[C@@]31CCN(C)C2 (stereo partly specified) | 6&-1
C/C=C(\C)[C@H](O)C[Si](C)(C)c1ccccc1 | -7
C=CCC(C)(O)CCc1ccccc1 (stereo unspecified) | 11
CC(C)(C)[C@]1(O)CCN2CC3c4ccccc4CCc4cccc(c43)[C@@H]2C1 (stereo partly specified) | -10&-29
Cc1c(C)c2c(c(C)c1O)CCC(C)(COc1ccc(CC3SC(=O)NC3=O)cc1)O2 (stereo unspecified) | -11
COC(=O)c1ccc(C(NC(=O)OCc2ccccc2)/C(C)=C/[C@@H](C)C(=O)NCCc2c[nH]c3ccc(OC)cc23)cc1 (stereo partly specified) | -14
Cc1noc(C)c1-c1ccc2ncnc(N(C)Cc3ccco3)c2c1 | -3
C=CC[C@@](C(C)=O)(C(=O)OC)C(NC(=O)OC(C)(C)C)c1ccccc1 (stereo partly specified) | 2
CN(Cc1ccco1)c1ccnc(-c2ccoc2)n1 | -1
O=c1cc(-c2cccc(O)c2O)oc2ccccc12 | -5
Cc1cccc(CN2CCN([C@@H](c3ccccc3)c3ccc(Cl)cc3)CC2)c1 | 6
COc1ccc2c(c1)O[C@@H]1c3ccc(OC)cc3OCC21 (stereo partly specified) | 4
C=C1CCC[C@]2(C)C[C@H]3OC(=O)[C@H](CNCCc4ccccc4OC)C3CC12 (stereo partly specified) | -2
CSc1ccc2c(c1)N(CC[C@H]1CCCCN1C)c1ccccc1S2 | 1
CCN1CCCC1Cn1c(-c2ccccc2)nc2c(N3CCOCC3)nc(C)nc21 (stereo unspecified) | -5
N#Cc1cccc(-c2cc(-n3ccnc3)ncn2)c1 | 2
COc1cccc([C@@H]2Oc3ccc(Br)cc3C[C@H]2OC(=O)N[C@H]2CCCc3ccccc32)c1 | -6
CN(C)CCCCSC(=N)N | 0&0
COC(=O)C(N)CS (stereo unspecified) | 3
N#Cc1cccc(-c2nc(Nc3ccncc3)c3ccccc3n2)c1 | 8
CC(=O)OC1C(=O)[C@@]2(C)C(O)CC3OC[C@]3(OC(C)=O)C2C(OC(=O)c2ccccc2)[C@]2(O)CC(OC(=O)C(O)C(NC(=O)c3ccccc3)c3ccccc3)C(C)=C1C2(C)C (stereo partly specified) | -5
COc1ccc(C2OCC3(COC(C)=O)C(C)C=C(C)C2C3C)cc1 (stereo unspecified) | -9
Nc1nc2ncc(=O)[nH]c2c(=O)[nH]1 | 14
CCCC[C@@H]1C[C@H]1C(NS(=O)(=O)c1cccc2cccnc12)c1ccc(-c2ccccc2)cc1 (stereo partly specified) | -4
CC1(C)CC2C1CCC1(C)OC1CCC2(C)O (stereo unspecified) | -1
CC(C)=C1C(=O)C(c2ccccc2)=C2CN3C(=O)N(CCc4ccccc4)C(=O)[C@]3(C)[C@H]21 | -6
O=C1C=C(O)c2ccccc2C1=O | -6&-2
CCCCc1cc2c(cn1)=C(OC(=O)C1CCCC1)C(C)(OC(=O)CC)C(=O)C=2 (stereo unspecified) | 5
CCCCC/C=C\C/C=C\C/C=C\C/C=C\CCCC(=O)C(F)(F)F | -22
COc1ccccc1CNc1ncncc1-c1ccccc1C | 5
CS(=O)(=O)Nc1cccc(-c2ccc3ncnc(Nc4ccc(F)cc4)c3c2)c1 | -10
COC(=O)[C@@]1(Cc2ccccc2)[C@H]2c3cc(C(=O)N4CCCC4)n(Cc4c(CO)[nH]cc(C)c4=O)c3C[C@H]2CN1C(=O)c1ccccc1 | -5
O=C(O)/C=C\c1ccc(O)c(O)c1 | -4
CNc1ncnc2ccc(-c3cccc(NS(C)(=O)=O)c3)cc12 | 0
O[N+]1=CC=CCC1=S.On1ccccc1=S.[Zn] | 1
COc1c(O)cc2oc3cc(O)c(CC=C(C)C)c(O)c3c(=O)c2c1CC=C(C)C | -10&-8&-7
CCCn1c(-c2ccc(F)cc2)nc2c(N(C)CCN(C)C)nc(C)nc21 | 4
COC(=O)N[C@@H](c1cccc(F)c1)[C@@H](C)[N+](=O)[O-] | -14
CC(=O)OCC(=O)[C@@]1(O)CCC2C3CCC4=CC(=O)CC[C@@]4(C)[C@]3(F)C(O)C[C@]21C (stereo partly specified) | 3
COC(=O)[C@@]1(Cc2ccccc2)[C@H]2c3cc(C(=O)N4CCCC4)n(Cc4ccc(OC)c(OC)c4)c3C[C@H]2CN1C(=O)c1ccccc1 | -7
Cc1cc(N)c2ccccc2[n+]1CCCCCCCCCCCCCC[n+]1c(C)cc(N)c2ccccc21 | -6
COC1=C(OC)C(=O)C(C/C=C(\C)CC/C=C(\C)CC/C=C(\C)CC/C=C(/C)CC/C=C(\C)CC/C=C(\C)CC/C=C(\C)CC/C=C(\C)CC/C=C(\C)CCC=C(C)C)=C(C)C1=O | -13
Cc1nc2ccc(NC(=O)Nc3ccnc4cccnc34)cc2o1 | 1
C[C@@H]1C(=O)NC2=Nc3cccc(Cl)c3CN21 | -2
COc1ccc(-c2nc3c(c4c2C[C@H](c2ccccc2)OC4)CN(C(=O)c2ccco2)CC3)c(C)c1 | 10
CN1[C@@H](CC(=O)c2ccccc2)CCC[C@@H]1C[C@@H](O)c1ccccc1 | 5
C[C@]12CCC(=O)C=C1CCC1C2C(O)C[C@]2(C)C1CC[C@]2(O)C(=O)CO (stereo partly specified) | 5
COC(=O)[C@@H](NC(=O)O[C@@H]1C(=O)c2ccc(OC)cc2O[C@H]1c1ccc2c(c1)OCO2)C(C)C | -6
